High-throughput results as filed in PubChem.
TAR Tat displ: HIV-1 TAR-Tat binding disruption; HIV-1 TAR RNA, Tat peptide displacement FRET; active compounds read high; z-score (no concentration beside the values); 100,000 tested, 0.6% active; AID 1259389;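 also: score is relative to mean and SD of negative controls; some compounds called inactive have numbers as strong as hits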
CDC25B CDK2 inh: human CDC25B-CDK2/CyclinA binding inhibition; P30305+P24941; HTRF CDC25B-CDK2/CyclinA binding, anti-His/anti-Flag; active compounds read high; z-score (test concentration not listed); 94,000 tested, 0.72% active; AID 1259370;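 also: score is relative to mean and SD of negative controls; strong numbers were not always called active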
* = called active by the depositor; nt = no result given.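 The calls were made as follows: active = z-score from 3 up in half or more of its runs; inactive = the rest.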

Values in the order – TAR Tat displ	CDC25B CDK2 inh
1) O=C1N(CCOc2ccc(Cl)cc2)c2ccccc2C1(O)c1c[nH]c2ccccc12 (configuration not stated)
  1.8	0.23
2) CCOC(=O)c1[nH]c(C)c(CN(Cc2ccco2)C(=O)CC)c1C
  0.94	nt
3) CCOC(=O)c1c(C)[nH]c(C)c1S(=O)(=O)N1CCC(C(=O)NC(C)C)CC1
  -0.04	nt
4) O=C(OC1CCCCc2cccnc21)c1ccc(Cl)cc1 (configuration not stated)
  nt	0.06
5) O=C1CN(Cc2ccccc2Cl)S(=O)(=O)c2ccccc2N1Cc1ccccc1F
  1.2	nt
6) Cc1ccnc(NS(=O)(=O)c2ccc(N3C(=O)C4CC=CCC4C3=O)cc2)n1 (configuration not stated)
  nt	0.18
7) Fc1cc(Br)c(F)cc1Br
  nt	-1.3
8) O=C(COCc1cc(-c2cccs2)on1)NCCCN1CCOCC1
  2	nt
9) COc1ccc(C2CC(=O)C3=C(C2)Nc2ncnn2C3c2cccc(F)c2)cc1 (configuration not stated)
  -0.03	-0.42
10) CCOc1ccc(S(=O)(=O)Nc2ccc(N3CCCS3(=O)=O)cc2)cc1
  -0.56	nt

Continued.
Values in the order – TAR Tat displ	CDC25B CDK2 inh
11) Cc1ccnc2c1CCN2c1ccccc1
  0.76	-4
12) Cn1c(CCc2cccc(NS(=O)(=O)c3ccccc3F)c2)nc2ccccc21
  1.7	nt
13) Cc1nc(SCC(=O)Nc2sc3c(c2C#N)CCC3)c2c3c(sc2n1)CCC3
  nt	-0.07
14) CCOc1ccc(N2C(=O)CSC2=O)cc1
  -0.07	-0.89
15) COc1ccc(OC)c(C2CC(c3ccc(C)cc3)Nc3nnnn32)c1 (configuration not stated)
  2.8	nt
16) CC(C)OC(=O)C1CCN(c2nc3ccccc3[nH]2)CC1
  1.9	-2.1
17) Cc1ccc(NC(=O)Nc2nc3ccc(S(C)(=O)=O)cc3s2)cc1Cl
  0.24	-0.5
18) COC(=O)C1=C(OC)C(=O)OC12C=CC(=O)C=C2
  nt	4.5
19) CC1=C(c2cccc(Br)c2)S(=O)(=O)N(Cc2ccc(C(=O)NC(C)C)cc2)C1=O
  1.2	nt
20) CC1N=C2c3ccccc3N=C(SC(C)C(=O)Nc3ccc(Cl)cc3)N2C1=O (configuration not stated)
  -0.4	nt

Part of the list above in order of number of heavy atoms, highest first.
Values in the order – TAR Tat displ	CDC25B CDK2 inh
19) CC1=C(c2cccc(Br)c2)S(=O)(=O)N(Cc2ccc(C(=O)NC(C)C)cc2)C1=O
  1.2	nt
13) Cc1nc(SCC(=O)Nc2sc3c(c2C#N)CCC3)c2c3c(sc2n1)CCC3
  nt	-0.07
18) COC(=O)C1=C(OC)C(=O)OC12C=CC(=O)C=C2
  nt	4.5
11) Cc1ccnc2c1CCN2c1ccccc1
  0.76	-4

Next results
Values in the order – TAR Tat displ	CDC25B CDK2 inh
21) CN(C(=O)c1c2c(nc3ccccc13)C(=O)N(C1CCCCC1)C2)C1CCCCC1
  0.69	nt
22) COc1ccc(-c2noc(-c3cc(-c4ccc(F)cc4)n[nH]3)n2)cc1
  -1.1	nt
23) Cc1ccc(C(C)C)cc1C(=O)CC1(O)C(=O)Nc2ccccc21 (configuration not stated)
  2.5	-0.26
24) O=c1c(Nc2ccccc2)c(-c2ccc(Cl)cc2)c1=O
  1	nt
25) COC(=O)Cc1ccc(N2C(=O)c3cccnc3C2=O)cc1
  0.81	0.28
26) O=C(Cn1c2ccccc2c2cn[nH]c(=O)c21)N1CCN(c2ccccc2)CC1
  nt	-4.8
27) CN(CCNS(=O)(=O)c1cc(Br)cc2c1N(C(=O)C1CC1)CC2)Cc1ccccc1
  1.4	3.8
28) CCCCCn1c(N2CCNCC2)nc2c1c(=O)[nH]c(=O)n2C
  nt	-1.1
29) COc1ccc(N2CCN(CCCNS(=O)(=O)c3c(C)noc3C)CC2)cc1
  0.23	0.79
30) NC(=O)CSc1nc2nccnc2c(=O)n1Cc1ccco1
  2.3	-2.7

Next section.
Values in the order – TAR Tat displ	CDC25B CDK2 inh
31) CC1(C)Cc2c(sc3ncn4nc(-c5ccncc5)nc4c23)C(C)(C)N1
  -1.7	0.44
32) Cc1cccc(C)c1OCC(O)Cn1c(C)[n+](C)c2ccccc21 (configuration not stated)
  2.3	-1.2
33) CCOC(=O)Cc1nnc(NC(=O)Nc2ccccc2)s1
  0.03	-1.1
34) O=C(NCc1cccs1)C1CCN(c2ncnc3c2sc2cccc(F)c23)CC1
  2	-23
35) O=C(O)CCCCNS(=O)(=O)c1ccccc1
  0.7	-1.4
36) CN1C2CCC1CC(NC(=O)c1ccc(Cl)cc1)C2 (configuration not stated)
  nt	-1.3
37) CCOC(=O)C1=C(C)N=C2SC(C)C(=O)N2C1c1cccs1 (configuration not stated)
  nt	-0.32
38) O=C1c2cccnc2C(=O)N1Cc1ccc(S(=O)(=O)NCc2ccccn2)s1
  -0.66	nt
39) Cc1ccc(N2C(=O)C3C4c5ccccc5C(CO)(c5ccccc54)C3C2=O)cc1Cl (configuration not stated)
  1.3	-1.1
40) O=C(COc1cccc2cccnc12)N1CCN(C(=O)COc2cccc3cccnc23)CC1
  0.47	-0.5

Next part
Values in the order – TAR Tat displ	CDC25B CDK2 inh
41) CCC(C)Nc1ncnc(N)c1[N+](=O)[O-] (configuration not stated)
  nt	-0.45
42) CCOC(=O)c1c(NC(=O)C(=O)N2CCOCC2)sc2c1CC(C)(C)OC2
  -1.5	-1.3
43) Cc1ccc(NS(=O)(=O)c2ccc3c(c2)S(=O)(=O)N=CN3)cc1Cl
  0.76	nt
44) COc1ccc(/C=C2\SC(=O)N(CC(=O)NCCO)C2=O)cc1OC
  nt	-1.1
45) CCCN(CCC)C(=O)c1oc2ccccc2c1NC(=O)CC1CCCC1
  0.51	-1.2
46) C=CCn1c(Sc2ncc([N+](=O)[O-])s2)n[nH]c1=O
  nt	-2.4
47) CCCc1c(SC(=O)N(C)C)ccc(C(C)=O)c1O
  nt	-0.86
48) Cc1cccn2c(=O)c3cc(C#N)c(=O)n(-c4cccc(Cl)c4)c3nc12
  -4.5	2.3
49) Nc1nc(-c2ccccc2)cc(-c2ccc(Cl)cc2)n1
  0.72	2.8
50) Cc1ccccc1C1Nc2ccccc2-n2cc3c(=O)n(C)c(=O)n(C)c3c21 (configuration not stated)
  -0.32	-1.3

The list continues.
Values in the order – TAR Tat displ	CDC25B CDK2 inh
51) Nc1nc2[nH]c(=O)c(=O)[nH]c2c(=O)[nH]1
  2.1	nt
52) O=C(CSc1ccc2nc(-c3ccccc3)cn2n1)N1CCCc2ccccc21
  0.59	nt
53) CCN1CCN(CCCNC(=O)C2CCN(c3nn4c(=O)c5c(nc4s3)CCCC5)CC2)CC1
  0.24	nt
54) Cc1cc(=O)n2nc(N3CCCC3C(=O)N3CCOCC3)sc2n1 (configuration not stated)
  0.92	1.1
55) O=C(c1cccs1)N(Cc1ccco1)c1ccccn1
  -0.33	0.14
56) Cc1ccc(S(=O)(=O)Nc2ccc(F)cc2F)cc1
  nt	-0.92
57) Cc1cc2oc(C(=O)Nc3ccc4nsnc4c3)c(C)c2cc1Cl
  1.2	-2.4
58) CCCNC(=O)Cn1nc(C(F)(F)F)cc1C
  0.26	-1.3
59) O=c1oc2ccccc2c(O)c1C=Nc1ccc(Cl)cc1
  nt	-1.4
60) CCc1nn(CCCC(=O)NC(C)CCc2ccccc2)c(=O)c2cc3oc(C)cc3n12 (configuration not stated)
  -1.5	-1.7

Reprinted at random: 4 compounds from above, in no set order.
Values in the order – TAR Tat displ	CDC25B CDK2 inh
55) O=C(c1cccs1)N(Cc1ccco1)c1ccccn1
  -0.33	0.14
53) CCN1CCN(CCCNC(=O)C2CCN(c3nn4c(=O)c5c(nc4s3)CCCC5)CC2)CC1
  0.24	nt
52) O=C(CSc1ccc2nc(-c3ccccc3)cn2n1)N1CCCc2ccccc21
  0.59	nt
60) CCc1nn(CCCC(=O)NC(C)CCc2ccccc2)c(=O)c2cc3oc(C)cc3n12 (configuration not stated)
  -1.5	-1.7

The list goes on:
Values in the order – TAR Tat displ	CDC25B CDK2 inh
61) NC(=O)Cn1nc2c3c(cccc3c1=O)-c1ccccc1-2
  nt	0.39
62) Cc1cccc(Nc2nc(NCC3COCCO3)nc3c2cnn3C)c1 (configuration not stated)
  1.1	nt
63) O=C(c1ccc2c(c1)OCO2)N1CCN(c2ncccn2)CC1
  nt	-0.86
64) Cc1c(C(=O)Nc2cc(F)ccc2F)sc2nc3n(c(=O)c12)CCCCC3
  1.9	nt
65) COCCN(Cc1ccco1)C(=O)c1sc2nc3n(c(=O)c2c1C)CCCC3
  2.5	nt
66) Cc1cc(NC(=O)c2sc(C3COc4ccccc4O3)nc2C)no1 (configuration not stated)
  nt	0.04
67) Cc1ccc2nc(Nc3cccc(F)c3)c3nncn3c2c1
  -0.35	3.3
68) N#C/C(=C\c1ccncc1)c1ccccn1
  nt	-1.1
69) C=CCN1C(=O)C2(c3ccccc31)c1c(oc3cc(C)c(C)cc3c1=O)C(=O)N2CC1CCCO1 (configuration not stated)
  2	-1.2
70) Cc1ncc(CNS(=O)(=O)c2ccccc2C(F)(F)F)c(N)n1
  nt	0.16

(cont.)
Values in the order – TAR Tat displ	CDC25B CDK2 inh
71) Cc1ccc2nc(-n3nc(C)c4c3NC(=O)CC4c3ccc(F)cc3)sc2c1 (configuration not stated)
  0.63	nt
72) Cc1ccc(C)c(Cn2c(C(C)N3CCOCC3)nc3ccccc32)c1 (configuration not stated)
  0.57	-0.92
73) Nc1cc2c(cc1C(=O)c1ccccc1)OCCO2
  -0.3	0.16
74) CCCN1C(=O)C2(/C(=C(/O)c3ccccc3)C(=O)C(=O)N2CCCN(C)C)c2ccccc21 (configuration not stated)
  0.08	-1.3
75) Cn1ncc2c(NCc3cccc(Cl)c3)nc(N3CCCCC3)nc21
  1.2	nt
76) N#CCc1nnc2n1-c1ccccc1CCC2
  nt	-2
77) O=C(c1cccc(O)c1)N1N=C(c2ccc(Cl)cc2)CC1(O)C(F)(F)F (configuration not stated)
  nt	2.6
78) O=[N+]([O-])c1ccc(-c2csc(COc3ccc4nonc4c3)n2)cc1
  nt	0.57
79) COC(=O)CCc1nc2ccccc2[nH]c1=O
  1.5	-1.1
80) Cc1ccc(CNCCN2CCOCC2)s1
  -0.66	-0.74

Results in sequence from the entries so far.
Nos. 74–77 in CDC25B CDK2 inh, in turn: -1.3, nt, -2, 2.6

The results go on.
Values in the order – TAR Tat displ	CDC25B CDK2 inh
81) CCn1nccc1C1CCCN1S(=O)(=O)c1ccc2c(c1)OCCO2 (configuration not stated)
  1.7	0.13
82) Cc1cc2c(cc1S(=O)(=O)NC1CCC(C)CC1)n(C)c(=O)c(=O)n2C (configuration not stated)
  1.5	nt
83) CCc1nn2c(=O)c(S(=O)(=O)Nc3ccc(C(C)C)cc3)c(C)nc2s1
  0.91	1.3
84) COc1ccccc1/C=C/c1nc2ccccc2n1C(C)C
  nt	-1
85) CN(c1cncc(C(=O)N2CCCC2)c1)S(=O)(=O)c1ccccc1
  0.95	nt
86) Cc1ccc(C2=NN(C(=O)CCCC(=O)O)C(c3ccccc3F)C2)cc1 (configuration not stated)
  nt	0.63
87) CC1CN(C(=O)Cn2cc(SCC(=O)NCc3ccco3)c3ccccc32)CC(C)O1 (configuration not stated)
  -1.1	nt
88) COc1cc2c(=O)n(C3CCCC3)c(=O)n(CC(=O)c3cccc(Br)c3)c2cc1OC
  1	-1.1
89) Cc1cc(C)c2c(n1)nn1c(C)c(CCC(=O)N3CCc4ccccc43)c(C)nc21
  1.7	-0.2
90) CCOCCCNC(=O)CCCn1nc(C)n2c(cc3occc32)c1=O
  1.1	-0.24

(list continues)
Values in the order – TAR Tat displ	CDC25B CDK2 inh
91) COc1ccc(N2CCN(c3nc4c(c(=O)[nH]c(=O)n4C)n3CCSc3ncccn3)CC2)cc1
  nt	-0.57
92) CCOC(=O)c1cc(S(=O)(=O)Nc2ccc(Cl)cc2)[nH]n1
  0.98	nt
93) Cc1nc2sccn2c(=O)c1S(=O)(=O)Nc1ccccc1C(=O)c1ccccc1
  -1.1	nt
94) CC(C)CCNc1nc2c(c(=O)[nH]c(=O)n2C)n1CCO
  0.19	-0.26
95) CC1=C(c2ccccc2)S(=O)(=O)N=C1Nc1ccc(C)c(C)c1
  -1.1	-2.3
96) CCCCOC(=O)c1ccc(-n2c(=O)c(C#N)cc3c(=O)n4ccccc4nc32)cc1
  1.4	-2
97) O=C1CCc2cc(S(=O)(=O)NC3CC3)cc3c2N1CC3
  0.78	nt
98) CCN(Cc1ccncc1)C(=O)C(CO)c1ccccc1 (configuration not stated)
  1.5	-1
99) COc1ccc(C2NC(=O)c3c(sc4c3CCC4)N2)cc1 (configuration not stated)
  -7.3	-1.9
100) CCOC(=O)c1sc(SCc2ccc(Cl)cc2)c(S(=O)(=O)C(C)C)c1N
  nt	-1.1

Next part:
Values in the order – TAR Tat displ	CDC25B CDK2 inh
101) Clc1ccc2c(c1)nc1n2CCN(Cc2ccco2)C1
  0.96	-1.4
102) CSCCC(NS(=O)(=O)c1cc(C(F)(F)F)cc(C(F)(F)F)c1)C(=O)NN (configuration not stated)
  nt	-1.1
103) COc1ccc(NC(=O)N2CCSc3ccccc32)cc1OC
  0.67	nt
104) Cc1ccsc1CCNS(=O)(=O)c1c(C(=O)N2CCCC2)c(C)n(C)c1C
  0.92	nt
105) Cn1c(=O)c2c(nc(NCc3cccnc3)n2Cc2ccccc2Cl)n(C)c1=O
  0.63	-0.62
106) Cn1nc(-c2ccccc2)c(-c2ccccc2)c(C(=O)OCC2CCCO2)c1=O (configuration not stated)
  0.21	-1.8
107) Cc1onc(-c2cccnc2)c1C(=O)O
  0.05	nt
108) COC(=O)c1ccccc1SC(CC(=O)c1cccnc1)c1ccc(F)cc1 (configuration not stated)
  nt	-1.1
109) O=[N+]([O-])c1cnc2nc(N3CCOCC3)oc2c1
  1	2.3
110) CCOC(=O)c1sc2ccccc2c1S(=O)(=O)Nc1ccc(F)cc1
  -2.1	nt
111) CC1Sc2ccc(S(=O)(=O)C(C)CC(=O)N3CCN(c4ccccc4)CC3)cc2NC1=O (configuration not stated)
  -3	nt
112) CCCCOc1ccc(/C=C2/N=C(c3ccc(Cl)c([N+](=O)[O-])c3)OC2=O)cc1OC
  nt	-0.92
